ugtP null kill – compounds lethal to S. aureus RN4220 ugtP deletion mutant | AID 1259309 | OD600 growth, 16 h; some inactives read as strong as hits | actives 0.54% (n = 330,000) | growth inhibition, % (concentration not given with the values);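 active = z-score under -3 and OD600 up to 0.15 on both plates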;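 note: plate controls were untreated wells for no effect and antibiotic for full effect; wells of about 80 µL received 100 nL stock; the first replicate is given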
PrP 5UTR inh – suppresses PrP 5' UTR mRNA reporter expression | cell-based PrP 5' UTR mRNA reporter, plate reader | inhibition, % (test concentration not listed) | actives 0.35% (n = 340,000) | AID 488862;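 active = every replicate at 50% or more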;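 note: 0 = median of the neutral control wells; tested in H4 reporter cells; numbers are from one replicate; inactives centre near -14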
RN4220 kill – S. aureus RN4220 growth inhibition; OD600, 16 h; inhibition, % (concentration not given with the values); actives 0.33% (n = 330,000); AID 1259311;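 active = z-score of -3 or lower and OD600 up to 0.18 on both plates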;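 note: plate controls were untreated cells for no effect and reference antibiotic for full effect; stock transfer was 100 nL into about 80 µL; one replicate is shown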
BJeLR lethal – kills HRASV12-expressing BJeLR cells; BJeLR (HRASV12) viability, CellTiter-Glo ATP luminescence, 48 h; reference of the scale not given here; inhibition, % (test concentration not listed); actives 0.17% (n = 300,000); AID 1554;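 active = replicate mean above 50%; inconclusive = above 50% but judged a plate artefact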;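 note: 50 nL library stock added to about 25 µL; numbers are from one replicate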
Bead autofluor – flagged as autofluorescent in microsphere protease counterscreen | fluorescence intensity (no concentration beside the values) | compound autofluorescence counterscreen, microsphere flow cytometry; stronger effect = higher value | actives 3.1% (n = 360,000);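 active = at least 3 SD above the mean of all compounds, about 16000 in these data; inconclusive = too few beads counted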;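 note: 100 nL of 1 mM stock went into each well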
Mtb hypoxia rep – Mtb hypoxia fluorescent reporter inhibition | M. tuberculosis hypoxia-regulated fluorescent reporter, fluorescence | fluorescence inhibition, % (concentration not given with the values) | actives 0.1% (n = 300,000) | AID 1159583;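 active = 35 to 45% if threefold the growth effect, above 45% if 1.5-fold the growth effect; inactive = the rest, general growth blockers included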;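 note: wells of about 50 µL received 100 nL stock; 0% = vehicle wells and 100% = reference inhibitor wells; whole bacteria with a GFP reporter of the hypoxia response; strong numbers were not always called active; many hits fall short of the cut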
Mtb hypoxia rep growth – further read-out of Mtb hypoxia rep, marked with its call; growth inhibition, %; measured here: M. tuberculosis growth (absorbance);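 0% = vehicle and 100% = reference antibiotic; read after six days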
Numbers without * were called inactive; ? = inconclusive; · = not tested or not shown. Rows were taken by chance, and some 3.9% of all compounds hit somewhere here.

SMILES | ugtP null kill | PrP 5UTR inh | RN4220 kill | BJeLR lethal | Bead autofluor | Mtb hypoxia rep | Mtb hypoxia rep growth
COC(=O)[C@]1(C)N[C@H](CN(C)S(=O)(=O)c2ccc(OC)cc2)[C@@H]2C(=O)N(C)C(=O)[C@@H]21 | 10 | -32 | 4.6 | · | 3491 | 5 | 5
COC(=O)N/N=C/c1cn(Cc2ccccc2F)c2ccccc12 | · | 7 | · | 1 | ? | · | ·
COc1ccc(CCNC(=O)CCC(=O)c2cccs2)cc1OC | 6 | -10 | 1.6 | 6 | · | 1 | 6
C=C(C)C(=O)NC1=NN(c2ccccc2)C(=O)C1 | 5 | -1 | 0.1 | -7 | 2129 | -2 | 2
O=C(O)Cc1ccc(NC(=S)Nc2ccc(Br)cc2Cl)cc1 | 5 | -3 | 3.4 | -6 | 3903 | -2 | 10
O=C1N/C(=N/O)S/C1=C/c1cccnc1 | 18 | -21 | 4.3 | -5 | 2373 | 16 | -1
O=c1cc(N2CCOCC2)[nH]c(=O)n1C1CCCCC1 | 2 | -5 | 8.1 | 4 | 3094 | · | ·
Cc1oc(-c2cc(F)cc(F)c2)nc1CN1CCSCC1 | 2 | -20 | 3.4 | -5 | 4504 | -4 | -4
CC1=NN(C(=O)c2cccc(Cn3nc(C)c([N+](=O)[O-])c3C)c2)C(O)(C(F)(F)F)C1 (centres undefined) | 7 | -24 | 2.4 | -6 | 24994* | 2 | 6
CC(NC(=O)COC(=O)c1ccc[nH]c1=O)c1ccccc1 (centres undefined) | -1 | -12 | -4.0 | · | 3488 | 5 | -2
Cc1ccccc1-c1cc(C(=O)NCc2cccc(Br)c2)nn1CC1CC(c2cccc([N+](=O)[O-])c2)=NO1 (centres undefined) | 5 | -16 | 12 | · | 4434 | -5 | -7
CC(=O)N1c2ccc(S(=O)(=O)N3CCCC(C(=O)Nc4cccc(F)c4)C3)cc2CC1C (centres undefined) | -8 | -13 | -12 | 3 | 4393 | 2 | 11
O=C(NCCc1c[nH]c2ccccc12)C(F)(F)C(F)F | 19 | -41 | 30 | -1 | 3137 | -7 | -3
Cc1nc2ccccn2c1/C(O)=C1\C(=O)C(=O)N(CCN(C)C)C1c1ccco1 (centres undefined) | 3 | -46 | 2.5 | 5 | 2177 | 1 | 0
Cc1nc2ccc(F)cc2cc1C(=O)Nc1ccc(Cl)c(Cl)c1 | -4 | -17 | 10 | 9 | 2672 | · | ·
O=C(CNC(=O)c1ccc2c(c1)OCO2)Nc1ncccc1O | 6 | -66 | 2.7 | -1 | 6334 | -4 | -5
COc1ccc(C(C)=N/N=C2/NC(=O)CC(C(=O)O)S2)cc1 (centres undefined) | 4 | · | 3.3 | · | · | -1 | 9
COCCn1cnc2c1c(=O)n(Cc1c(F)cccc1Cl)c(=O)n2Cc1ccccc1 | 12 | -16 | 1.5 | -5 | 6573 | 0 | 2
COc1ccc(OCC(=O)NCCCN2CCOCC2)cc1 | 12 | -2 | 7.7 | -8 | 3249 | 5 | 1
Cc1ccccc1NC1(C#N)CCCCC1 | 4 | -10 | 2.5 | -18 | 5042 | 11 | 13
CCOC(=O)C1C(=O)NC(c2ccccc2)=NC1c1ccc(Br)cc1 (centres undefined) | 4 | -38 | 1.8 | -5 | 2193 | 8 | 7
Cc1ccc(CNC(=O)c2cc(-c3cc(C)cc(C)c3O)n[nH]2)cc1 | -5 | -8 | -20 | -1 | 4626 | 9 | -1
CCCN(CC(=O)Nc1cccc(Br)c1)CC(=O)Nc1ccc(F)c(F)c1F | -26 | -9 | -18 | 0 | 1956 | 6 | 10
CC(C)(C)S(=O)(=O)c1ccsc1C(=O)O | 7 | -10 | 0.0 | 8 | 2299 | -2 | -5
COC(=O)C(C(=O)OC)C(CC(=O)c1ccc(Br)cc1)c1ccccc1 (centres undefined) | 14 | -22 | 5.4 | · | 2947 | 4 | 2
SMILES | ugtP null kill | PrP 5UTR inh | RN4220 kill | BJeLR lethal | Bead autofluor | Mtb hypoxia rep | Mtb hypoxia rep growth
CN(C)c1ccc(-n2cccc2C=Nn2cnnc2)cc1 | 2 | · | 3.0 | · | · | 12 | -2
Cc1ccc(C(=O)CSc2nc3cccnc3n2C)cc1 | -3 | -15 | 1.9 | 0 | 4466 | · | ·
Cc1occc1C(=O)Nc1sccc1C(N)=O | 1 | -5 | 2.4 | 10 | ? | 5 | 6
Cn1c(CCCOc2ccc(Cl)cc2Cl)nnc1SCC(=O)Nc1nccs1 | -3 | -46 | 8.8 | -30 | 9960 | 6 | -3
COc1ccc(C2CC(=O)Oc3c(C(C)C)ccc(C)c32)cc1 (centres undefined) | 33 | 24 | 1.3 | · | 2912 | 0 | 1
COC(=O)c1cc2ccsc2n1Cc1ccccc1F | 23 | -27 | -13 | 1 | 8554 | -7 | -6
COc1cc(CCC(=O)N2CCN(c3ccccc3)CC2)cc(OC)c1OC | 11 | 2 | 0.5 | 4 | 3627 | -5 | -5
CC(C#N)CCC#N (centres undefined) | 6 | -20 | 7.1 | · | 4871 | 10 | 4
CC12CC[C@H]3[C@@H](CCC4(O)C[C@H](O)CCC34C=NNC(=O)c3ccc(O)cc3)C1(O)CCC2C1=CC(=O)OC1 (some centres undefined) | -2 | · | 2.0 | · | · | -5 | -4
Clc1ccccc1C=NNC1=Nc2cccc3cccc1c23 | 10 | · | -2.1 | · | · | 10 | -2
Cc1ccc(C(=O)Nc2nnc(CC(=O)N/N=C/c3ccc(O)c(O)c3)s2)cc1 | · | -23 | · | -6 | 3837 | · | ·
CCOc1ncccc1C(=O)Nc1nnc(C2CC2)s1 | 15 | -19 | 2.7 | 7 | 5353 | 2 | 0
CN1CCN(CCC(=O)Nc2ccccc2Cl)CC1 | 3 | -26 | 1.2 | -10 | 3709 | 0 | 3
CC(=O)N(C(C)=O)S(=O)(=O)c1ccc(N=NN2CCCCC2)cc1 | -9 | -20 | 2.3 | 4 | 9392 | -3 | 6
COc1ccc(/C=N/NC(=O)CC(=O)NCCc2ccccc2)cc1OC | · | -8 | · | 4 | 7342 | · | ·
COc1ccc(NC(=O)CN(C)CC(=O)Nc2cccc(S(=O)(=O)N(C)c3ccccc3)c2)cc1 | 7 | -7 | 5.3 | 1 | 4138 | 4 | 21
Cc1cccc(C(=O)NCCCNC(=O)c2ccco2)c1 | -1 | -38 | 2.9 | -2 | 3682 | 1 | 4
CC(C)c1ccc(S(=O)(=O)N2CCN(C(=O)C3CCN(C(=O)c4ccc(F)cc4)CC3)CC2)cc1 | · | 7 | · | 3 | 4454 | · | ·
Cc1ccc2[nH]c3nc(SCCN4CCOCC4)nnc3c2c1 | -2 | -25 | -1.0 | 11 | 9195 | 1 | 4
N/C(=N\OC(=O)c1ccccc1[N+](=O)[O-])c1cccnc1 | · | -29 | · | 1 | 2771 | · | ·
Cc1ccc2c(c1)cc1c(=O)n(CC(=O)N3CCC4(CC3)OCCO4)nc(C)n12 | 3 | -9 | 4.2 | -1 | 5388 | -5 | 1
CCc1ccc(NC(=S)N(CCN(C)C)C(C)c2ccncc2)cc1 (centres undefined) | -6 | -16 | 2.4 | 13 | 3991 | -8 | -10
CSCCC(NC(=O)c1ccco1)c1nc2ccccc2[nH]1 (centres undefined) | 2 | -34 | 2.9 | -5 | · | -12 | -12
COc1ccccc1N=Nc1c(C)[nH]n(-c2ccccc2)c1=O | 3 | -23 | -2.5 | -4 | 3141 | 8 | -1
Cc1cc(C(=O)Cn2c(CO)nc3ccccc32)c(C)n1C | 12 | -30 | 29 | -7 | 4196 | 15 | 3

Sorted by SMILES length (lowest first): 12 of the compounds above
SMILES | ugtP null kill | PrP 5UTR inh | RN4220 kill | BJeLR lethal | Bead autofluor | Mtb hypoxia rep | Mtb hypoxia rep growth
Cc1occc1C(=O)Nc1sccc1C(N)=O | 1 | -5 | 2.4 | 10 | ? | 5 | 6
CCOc1ncccc1C(=O)Nc1nnc(C2CC2)s1 | 15 | -19 | 2.7 | 7 | 5353 | 2 | 0
Cc1ccc(C(=O)CSc2nc3cccnc3n2C)cc1 | -3 | -15 | 1.9 | 0 | 4466 | · | ·
Clc1ccccc1C=NNC1=Nc2cccc3cccc1c23 | 10 | · | -2.1 | · | · | 10 | -2
Cc1ccc2[nH]c3nc(SCCN4CCOCC4)nnc3c2c1 | -2 | -25 | -1.0 | 11 | 9195 | 1 | 4
Cc1cc(C(=O)Cn2c(CO)nc3ccccc32)c(C)n1C | 12 | -30 | 29 | -7 | 4196 | 15 | 3
COc1ccccc1N=Nc1c(C)[nH]n(-c2ccccc2)c1=O | 3 | -23 | -2.5 | -4 | 3141 | 8 | -1
COc1ccc(C2CC(=O)Oc3c(C(C)C)ccc(C)c32)cc1 (centres undefined) | 33 | 24 | 1.3 | · | 2912 | 0 | 1
N/C(=N\OC(=O)c1ccccc1[N+](=O)[O-])c1cccnc1 | · | -29 | · | 1 | 2771 | · | ·
COc1cc(CCC(=O)N2CCN(c3ccccc3)CC2)cc(OC)c1OC | 11 | 2 | 0.5 | 4 | 3627 | -5 | -5
COc1ccc(NC(=O)CN(C)CC(=O)Nc2cccc(S(=O)(=O)N(C)c3ccccc3)c2)cc1 | 7 | -7 | 5.3 | 1 | 4138 | 4 | 21
CC12CC[C@H]3[C@@H](CCC4(O)C[C@H](O)CCC34C=NNC(=O)c3ccc(O)cc3)C1(O)CCC2C1=CC(=O)OC1 (some centres undefined) | -2 | · | 2.0 | · | · | -5 | -4

(continued)
SMILES | ugtP null kill | PrP 5UTR inh | RN4220 kill | BJeLR lethal | Bead autofluor | Mtb hypoxia rep | Mtb hypoxia rep growth
Cc1ccccc1C(=O)N=c1sccn1C | 8 | -19 | 4.2 | 3 | 5142 | · | ·
O=C(Nc1ccc(Cl)c(C(=O)N2CCOCC2)c1)c1ccccc1 | 5 | -13 | -2.4 | 1 | 4965 | 5 | 2
COc1ccc(NC(=O)CCS(=O)(=O)c2ccc3c(c2)CCCN3C(C)=O)cc1 | -3 | -7 | -1.4 | 1 | 3934 | · | ·
COC(=O)C1C2C=CC3(CN(C(C)C)C(=O)C13)O2 (centres undefined) | 4 | -18 | 0.7 | -5 | 5664 | · | ·
N#Cc1ccc(OCC(=O)NCC2(N3CCCCC3)CCCCC2)cc1 | 5 | -20 | 0.6 | -10 | 5174 | 5 | -3
COc1ccc(/C=N/NC(=O)c2ccc(COc3cccc4cccnc34)cc2)cc1O | · | -22 | · | 5 | 5096 | · | ·
CC(C)Oc1ccc(C(=O)N/N=C/c2ccc(-c3ccc(S(=O)(=O)Nc4ncccn4)cc3)o2)cc1 | · | -11 | · | 2 | 3907 | · | ·
CCN1C(=O)CSC1=NS(=O)(=O)c1ccc(C)cc1 | 6 | · | 18 | · | · | 11 | -4
CSc1ccccc1NC(=S)Nc1ccccc1C(F)(F)F | 0 | -25 | 3.3 | -1 | 19907* | -1 | -6
Cc1ccc(C(CCN(Cc2ccccc2)C(=O)c2ccco2)c2ccco2)cc1 (centres undefined) | 54 | -1 | 9.2 | 6 | 2660 | 9 | 3
CCC[N+]1(CC#CC2(O)CCCCC2)CCOCC1 | 6 | -5 | 6.2 | 1 | 4842 | -2 | -6
COc1ccc(-c2nc3ccccc3c(=O)o2)cc1OC | -14 | -25 | 3.1 | -8 | 3787 | 11 | 7
COc1ccc(C=O)cc1Cn1ccnc1 | -2 | -16 | -0.8 | 4 | 4678 | 10 | -2
Nc1c(C(=O)NCc2cccs2)nnn1CC(=O)Nc1cccc(Cl)c1 | 0 | -12 | 6.0 | 8 | 2208 | -13 | 0
Cc1cc2cccc(C)c2nc1SCC(=O)NNC(=O)c1ccco1 | · | -34 | · | 9 | 4297 | · | ·
COc1ccc2nc(C)c3cc(C)oc3c2c1 | -5 | -11 | -0.6 | · | 4838 | · | ·
COC(=O)CCC(=O)OC1(C)C(=O)C2=CN(Cc3ccccc3)C(c3ccc(OC)cc3)=CC2=C(Br)C1=O (centres undefined) | -13 | -7 | 5.7 | 5 | 2581 | 7 | 8
c1ccc(-c2nnc(C3CC(c4cccnc4)=NO3)o2)cc1 (centres undefined) | 2 | -18 | 2.0 | 0 | 3882 | 4 | 9
CCn1cc(C(=O)O)c(=O)c2cc(S(=O)(=O)N(C)C)ccc21 | 4 | 2 | 3.8 | 6 | 9439 | 1 | 9
CCCOc1ccc(C2/C(=C(/O)c3ccccc3)C(=O)C(=O)N2CCCN(C)C)cc1OC (centres undefined) | -1 | -6 | -3.7 | · | 4059 | 13 | 5
